MLL AF4-AF9 inh: blocks AF4 peptide binding to human AF9 | AlphaScreen, biotin-AF4 peptide binding to FLAG-AF9 | P42568 | hit rate 0.47% among 350,000 | inhibition, % at 10 µM;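 active = every replicate reaching a set inhibition limit, whatever the replicate mean, cut at about 25% in these data; inconclusive = mean inhibition reaches that limit but some replicates miss it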;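 note: 0% = plate neutral control median and 100% = total signal loss; the record names both 10 and 1 µM as test concentration; the first replicate is given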
Target sequence (P42568 whole entry, looked up): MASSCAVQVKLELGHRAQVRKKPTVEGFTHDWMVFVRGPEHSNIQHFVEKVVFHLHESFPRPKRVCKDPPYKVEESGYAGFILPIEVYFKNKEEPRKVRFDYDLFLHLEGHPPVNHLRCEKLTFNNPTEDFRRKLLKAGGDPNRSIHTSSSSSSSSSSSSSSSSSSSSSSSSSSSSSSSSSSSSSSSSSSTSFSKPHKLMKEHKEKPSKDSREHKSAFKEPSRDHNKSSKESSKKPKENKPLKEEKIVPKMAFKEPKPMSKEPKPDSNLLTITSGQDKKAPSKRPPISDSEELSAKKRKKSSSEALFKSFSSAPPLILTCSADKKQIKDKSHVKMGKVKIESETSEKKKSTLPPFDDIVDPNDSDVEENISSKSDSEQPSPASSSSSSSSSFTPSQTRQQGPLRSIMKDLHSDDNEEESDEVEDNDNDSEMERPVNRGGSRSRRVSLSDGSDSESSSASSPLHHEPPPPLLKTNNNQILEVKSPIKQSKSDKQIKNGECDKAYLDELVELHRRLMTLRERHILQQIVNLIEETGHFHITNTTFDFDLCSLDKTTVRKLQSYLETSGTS
RanGTP-Imp inh: inhibitors of RanGTP-importin-beta interaction, primary screen, biochemical, FRET, CFP-Ran, YFP-importin-beta, homogeneous; cell-free CFP-Ran/YFP-importin-beta FRET ratio; hit rate 1.1% among 300,000; inhibition, % (test concentration not listed);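 active = most replicates above 15%; inconclusive = exactly half above 15%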;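 note: 0% = DMSO wells and 100% = Ran loaded with GDP instead of GTP; wells of about 40 µL received 100 nL stock; the first replicate is given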
Beta cell apopt: beta cell apoptosis inhibition; protection from apoptosis, % (no concentration beside the values); INS-1E cytokine-induced death, ATP luminescence, 48 h; percent of positive-control rescue, neutral wells zero; hit rate 0.8% among 300,000;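 active = all replicates at 75% or more, or half of them and the mean; inconclusive = half reach 75% but not the mean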;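 note: 0% = cytokine-treated negative control wells and 100% = positive control rescue; higher means more ATP so stronger rescue from cytokine killing; wells of about 40 µL received 100 nL stock; the first replicate is given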
LANA-H2B inh: blocks KSHV LANA binding to histone H2A/H2B | Q9QR71 | cell-free LANA-H2A/H2B peptide, fluorescence polarization | inhibition, % (concentration not given with the values) | hit rate 0.6% among 320,000; in the data active = inhibition mostly above about 10%, no sharp cut-off; inactive = mostly below about 6.7%;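 note: stock transfer was 7.5 nL into about 10 µL; 0% = median of vehicle wells and 100% = median of positive control wells; one replicate is shown; the record names a cut of 25% in any replicate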
Bfl-1 A1 inh: inhibitors of the anti-apoptotic protein A1, read as caspase activation; MEF A1-2A-BIM cells, Caspase-Glo 3/7 luminescence, 3 h; percent of clofoctol response, vehicle zero; hit rate 0.066% among 330,000; caspase activation, % (test concentration not listed);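 active = over half of replicate activation scores above 10%, or exactly half above 10 with the replicate mean above 10; inconclusive = replicate mean below 10 yet half the replicates above 10; inactive = over half of replicates below 10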;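 note: wells of about 30 µL received 50 nL stock; many hits fall short of the cut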
Vif TR-FRET: inhibitors of Vif binding to APOBEC3G peptide, primary screen, biochemical, TR-FRET, GST-Vif 1-94, biotin-A3G peptide, dose response retest (AID 1117319); hit rate 0.57% among 260,000; inhibition, %; hits with a dose series show IC50 in µM; TR-FRET GST-Vif / biotin-A3G peptide binding; higher % means a stronger effect; test concentration not given here; strong numbers were not always called active;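 active = above the screen mean plus three standard deviations and confirmed in dose response; inconclusive = results disagree or hit not tested in dose response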;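 note: Vif residues 1-94 fused to GST binding biotinylated APOBEC3G peptide 110-148; 0% = full assay without inhibitor and 100% = GST in place of GST-Vif; retest series ran down from 100 µM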
T cruzi repl: T. cruzi replication inhibition; inhibition, % (no concentration beside the values); T. cruzi beta-gal in NIH3T3, luminescence, 90 h; hit rate 1.4% among 300,000;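 active = mean inhibition across valid replicates above about 55%, limit read from the data; inconclusive = mean below that limit but half or more replicates reach it; inactive = mean below it, under half of replicates reach it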;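 note: signal also drops with host cell toxicity which is not excluded here; 0% = plate median of DMSO wells and 100% = zero luminescence signal; higher percent means less beta-gal luminescence so fewer parasites; stock transfer was 50 nL into about 50 µL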
Calb FLC: affects C. albicans growth with fluconazole; growth inhibition, % (test concentration not listed); C. albicans CaCi-2 (fluconazole-resistant clinical isolate) + fluconazole, Alamar Blue growth, 48 h; hit rate 0.57% among 300,000; AID 1979;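 active = most replicates above 75%; inconclusive = exactly half above 75%; inactive = most below 75%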;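 note: all wells also contain fluconazole at 8 µg/ml as a sub-toxic cotreatment; 0% = median of DMSO wells and 100% = median of geldanamycin control wells; wells of about 8 µL received 7.5 nL stock; the first replicate is given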
An asterisk follows results filed as active; ? = inconclusive; / = not tested or not shown.

SMILES	MLL AF4-AF9 inh	RanGTP-Imp inh	Beta cell apopt	LANA-H2B inh	Bfl-1 A1 inh	Vif TR-FRET	T cruzi repl	Calb FLC
COc1ccc(-c2cc(C(F)(F)F)nc(SCC(=O)NCc3ccco3)n2)cc1OC	/	3.9	-1.2	5.5	0.3	4.6%	26.1	-3.9
O=C(C[C@@H]1C/C=C\CCCC(=O)OC[C@@H]2CCCN2C1=O)N[C@H](CO)Cc1ccccc1	-0.6	/	0.1	5.8	0.3	/	/	/
COC(=O)c1[nH]c2c(c1C)C(=O)CC(c1cc(OC)ccc1OC)C2 (stereo not given)	-3.1	8.7	7.6	3.9	0.2	-3.6%	3.7	-0.4
Cc1ccccc1CS(=O)(=O)Cc1ccc(C(=O)NCc2cccnc2)o1	/	11.2	-0.2	-4.4	-0.1	-6.6%	-3.8	3.3
Clc1cccc(CNCC2CCCO2)c1Cl (stereo not given)	-8.5	-3.8	/	3.0	0.7	/	-7.3	-4.7
CN(C)/C=C/C(=O)c1c(F)cccc1F	3.2	2.6	-1.2	-14.5	-0.7	-5.5%	-11.5	-2.1
COc1cccc(NC(=O)Nc2ccc(C)c(Cl)c2)c1	0.1	3.6	11.6	-0.1	-1.3	7.9%	60.7*	-32.3
COc1ccc(CCC(=O)Nc2cc(S(C)(=O)=O)ccc2Cl)cc1	/	1.8	-4.0	2.2	0.9	13.2%	-6.4	21.3
Cc1ccc(C(=O)NCc2ccc3c(c2)OCO3)cc1S(=O)(=O)N1CCOCC1	/	2.1	-9.5	3.6	0.2	-5.3%	-13.1	-10.0
CC(=O)CCc1ccc(OC(=O)c2cccnc2)cc1	/	-1.6	-0.5	-7.5	-0.2	13.2%	-0.3	0.6
Cc1cc(-c2ccc(Br)s2)nc(-n2cccc2)n1	1.7	?	/	/	/	-6.8%	-11.0	1.3
CCCCCN(C(=O)CCC(=O)OCc1ccccc1C)c1c(N)n(CCCC)c(=O)[nH]c1=O	-13.1	?	-5.8	-0.9	0.4	3.1%	10.4	0.9
COc1ccc2c(c1)c1ncn(CCN3CCNCC3)c(=O)c1n2C	5.4	-2.7	-3.5	-5.1	0.1	?	-3.0	0.0
CC(OC(=O)C1CCCCC1)c1nc2ccccc2[nH]1 (stereo not given)	1.7	2.3	/	1.3	-0.5	/	-4.3	-8.2
Cn1c(SCc2ccc(Cl)cc2)nnc1-c1ccc2nonc2c1	2.5	0.7	-2.9	3.0	0.2	-2.9%	11.3	-1.4
O=C(NCC(=O)N(Cc1ccccc1)C(C(=O)NC1CCCC1)c1ccncc1)c1ccco1 (stereo not given)	/	3.2	-1.8	1.6	0.1	5.3%	-17.5	-3.7
c1ccc(-c2cnnc(N3CCCCC3)n2)cc1	/	2.3	-1.0	-0.1	0.7	-0.7%	4.8	-7.9
CC[n+]1ccc(/C=C2\Sc3ccccc3N2CCCS(=O)(=O)[O-])c2ccccc21	0.1	-2.0	-4.1	-5.0	0.2	27.9%	2.7	-7.4
CCN(c1ccc(OC)cc1)S(=O)(=O)c1nnc(NC(=O)c2ccccc2Cl)s1	/	-3.4	4.8	-0.3	0.1	15.5%	-15.6	8.8
CC(=O)OC(C(=O)n1nc(C)cc1C)c1ccccc1 (stereo not given)	/	1.8	-5.0	1.1	0.9	-1.0%	-9.7	-5.8
O=C(NCc1cccc(OC(F)(F)F)c1)C1CCC(=O)N(Cc2cccc(F)c2)C1 (stereo not given)	0.6	0.2	0.6	1.3	-0.1	-0.7%	7.7	-9.5
CSc1nc2ccc(S(=O)(=O)NC3CCCCC3)cc2s1	/	1.2	7.6	0.5	1.7	-21.1%	6.0	-3.9
S=C1SCN(Cc2ccco2)CN1Cc1ccco1	5.9	-2.5	-7.7	-1.5	0.5	?	-13.8	20.9
O=c1cc(CSc2ccc(Cl)cc2)nc(-c2ccncc2)[nH]1	-8.2	-1.2	/	2.5	1.0	?	-4.7	-4.7
CCN1CCN(C(=S)Nc2ccc3nc(N4CCN(CC)CC4)cc(C)c3c2)CC1	/	1.0	-7.3	-4.7	0.7	2.6%	47.7	-27.0

Remaining list, next part.
SMILES	MLL AF4-AF9 inh	RanGTP-Imp inh	Beta cell apopt	LANA-H2B inh	Bfl-1 A1 inh	Vif TR-FRET	T cruzi repl	Calb FLC
CCc1ccccc1NC(=S)N(CCCN1CCOCC1)Cc1ccccn1	/	2.2	-4.9	1.8	-0.2	/	-29.1	5.4
Cc1nc2ncnn2c(C)c1Cc1ccc(Cl)cc1	/	1.9	/	3.1	0.6	-0.5%	8.0	1.7
CCOC(=O)c1c(NC(C)=O)sc2c(OCCN(CC)CC)c(Br)ccc12	13.1	-4.3	55.7	-1.2	0.7	6.3%	58.0*	21.2
O=C(O)CCn1c(-c2ccccn2)nc2ccccc21	-5.9	7.8	/	1.2	-0.1	/	-5.5	-7.5
Cc1ccc(S(=O)(=O)/N=C(\Nc2cccc(C)c2)Nc2nc(C)cc(C)n2)cc1	-3.6	?	-2.6	-0.1	1.1	/	22.3	5.4
COc1c(C)cc(Br)cc1C(=O)Nc1ccccc1N1CCN(C(=O)c2ccccc2)CC1	-2.1	2.7	29.4	2.4	-0.2	1.1%	65.9*	-9.7
COc1cccc(C(=O)COC(=O)CCCC(=O)NC2CCCCC2)c1	1.4	3.1	-8.1	0.9	-1.5	/	4.1	-3.3
Cc1c(C(=O)OC2CCCCC2)[nH]c2c1C(=O)CC(C)(C)C2	/	?	11.6	7.5	0.3	-0.9%	7.3	3.2
O=C(CCCCC(=O)NCCc1ccccc1)NCCc1ccccc1	-9.5	5.2	-0.8	7.7	0.2	/	-2.2	10.9
Cc1cccc(-c2nc(CSc3nc4c(c(=O)[nH]3)CCC4)c(C)o2)c1	4.3	-1.7	-5.8	-0.5	0.0	-4.7%	4.3	9.4
O=C(Nc1ccccc1CC[N+](=O)[O-])N1CCN(c2ccccc2)CC1	-2.3	-2.4	-5.7	3.1	0.2	0.1%	-31.6	5.0
Cc1ccc(OC(C)C(=O)Nc2ccc(S(=O)(=O)Nc3nccs3)cc2)cc1 (stereo not given)	-0.2	1.9	-16.0	1.8	0.8	/	-11.1	3.9
CCC(C)NC(=S)Nc1ccccc1 (stereo not given)	-20.3	-2.4	/	/	/	-1.7%	-6.0	-4.6
COc1ccc(C(=O)NC(=S)Nc2ccc(N3CCN(C(C)=O)CC3)cc2)cc1[N+](=O)[O-]	-8.1	3.9	-3.3	-2.4	1.1	8.8%	-13.5	8.4
COc1ccc(OC)c(N(CC(=O)Nc2ccccc2)S(=O)(=O)c2ccccc2)c1	-2.9	2.7	-1.0	0.4	0.7	/	-0.4	7.2
O=C(COC(=O)C1C2CC3OC(=O)C1C3C2)Nc1ccc(Br)cc1 (stereo not given)	0.7	3.1	-4.7	-0.3	-0.3	-2.4%	-1.0	-4.1
CCOC(=O)c1cc2sc(C)cc2n1CC(=O)N1CCc2ccccc21	/	-5.8	1.0	0.7	0.1	-31.7%	9.9	-4.3
CCC(=O)N1CCCn2c1nc1ccccc12	/	4.9	-14.7	0.6	-1.1	30.3%	-16.3	6.8
COc1ccc2c(c1)CC(C1(O)C(=O)Nc3ccccc31)C2=O (stereo not given)	/	-3.9	-5.7	-5.7	0.0	0.1%	-12.4	?
COc1ccc(Cl)c(Cn2c(NCc3ccco3)nc3c2c(=O)n(C)c(=O)n3C)c1	/	/	77.8*	-4.9	-0.9	0.6%	/	/
COc1cc(OC)c(C(=O)OCCCOC(=O)c2cc(OC)c(OC)cc2OC)cc1OC	-3.1	2.6	5.7	-3.1	2.2	/	-5.7	4.8
Cc1cc(C(=O)N2CCN(C(=O)C3CCCO3)CC2)no1 (stereo not given)	/	-0.6	-4.2	1.4	0.0	12.4%	-14.4	-1.5
COc1ccc(-c2ncncc2-c2csc(C)n2)c(O)c1	/	1.5	-1.5	-1.5	0.4	2.7%	-15.6	0.7
O=C(CCNC(=O)N1CC(=O)Nc2ccccc21)NCCc1cccc(F)c1	-3.5	1.6	/	-0.9	-0.8	/	-14.9	-8.5
CCCCn1c(=O)[nH]c(=O)c2c1nc(-c1ccc([N+](=O)[O-])cc1)n2CC	-0.4	-0.5	3.1	-1.8	-0.6	5.3%	12.5	9.9

Additional records follow:
SMILES	MLL AF4-AF9 inh	RanGTP-Imp inh	Beta cell apopt	LANA-H2B inh	Bfl-1 A1 inh	Vif TR-FRET	T cruzi repl	Calb FLC
O=C(COc1ccc2ccc(=O)oc2c1)NCCc1c[nH]c2ccc(F)cc12	-3.5	2.9	/	-3.2	2.6	/	11.1	12.8
Cc1ccc(/C=[N+](/C)[O-])cc1	-0.7	-1.4	-8.1	4.9	-0.2	/	-8.3	-1.1
NC(=O)c1nsc(C(=O)N(c2ccccc2)C(C(=O)NCc2ccc(F)cc2)c2ccco2)c1N (stereo not given)	24.4	1.2	4.4	-6.1	0.1	-0.8%	30.8	1.2
COc1ccc(N2CCCC2)c(NC(=O)c2ccc([N+](=O)[O-])o2)c1	32.2*	4.6	-8.4	3.9	-0.1	/	22.5	7.5
CCOC(=O)c1[nH]c(C)c(CN(CCc2ccccc2)S(C)(=O)=O)c1C	-1.8	-1.0	1.3	-3.1	0.3	-9.8%	12.8	12.0
COC(=O)[C@@H](NC(=O)O[C@@H]1C(=O)c2cc(Br)ccc2O[C@H]1c1cccc(OC)c1)C(C)C	/	2.3	-4.8	-1.6	-0.2	2.8%	-18.3	16.7
CCOc1ccccc1CNC(=O)c1ccc(NC(=O)C2=CSCCO2)cc1	3.3	0.9	2.1	0.1	-2.0	/	3.9	-1.9
O=C(Nc1ccccc1C(F)(F)F)C1CCCC1	-0.3	2.1	-8.7	2.4	0.7	/	-0.1	-0.7
COc1ccc(C(=O)NNC(=O)c2cccs2)cc1S(=O)(=O)N1CCOCC1	1.4	/	-1.2	1.0	0.4	/	/	/
COc1ccc(C(=O)CSc2nnc(CNC(=O)c3ccccc3F)n2C)cc1OC	-3.0	3.1	3.8	-0.7	0.2	/	-13.1	-0.8
Cc1cccc(CN2C(=O)N/C(=C/c3cc(C)n(-c4cc(C)ccn4)c3C)C2=O)c1	/	1.7	-20.2	-0.8	0.2	5.1%	10.9	2.7
CCCC(=O)Nc1ccc2oc(=O)ccc2c1	0.2	-1.4	-4.4	-1.6	-0.2	13.7%	-1.1	-4.8
CCCOc1ccc(C2C(C(=O)c3cc4ccccc4o3)=C(O)C(=O)N2c2cc(C)on2)cc1 (stereo not given)	0.3	-1.3	7.7	2.1	0.5	/	3.5	-9.2
Cc1[nH]c2ccccc2c1C(=O)CSc1nncn1C	/	2.2	-1.7	1.6	-0.9	6.2%	-9.2	5.6
O=C(O)c1ccc(NS(=O)(=O)c2cc(Cl)sc2Cl)cc1	-3.5	-1.5	-0.2	2.0	0.2	/	8.0	14.7
Cc1ccc(S(=O)(=O)Oc2ccc(/C=C(/NC(=O)c3ccccc3)C(=O)Nc3ccccc3)cc2)cc1	/	2.4	1.9	-2.1	0.1	-13.7%	0.9	16.0
Cc1nnc(NC(=O)CCn2c(=O)oc3ccccc32)s1	0.9	0.6	-2.0	4.1	-0.5	/	3.2	-3.9
C(=N\NCc1ccccc1)/c1ccc2nccnc2c1	-0.3	1.0	/	-6.3	0.1	2.5%	6.9	-0.3
COc1ccc(C(=O)c2cnc[nH]2)cc1	-0.3	-0.5	-7.5	-1.3	0.4	-0.9%	/	-3.8
O=C(Nc1ccccc1N1CCOCC1)c1ccc(Br)o1	/	-1.2	-4.6	0.9	-0.5	7.1%	6.8	7.8
O=C(CSc1nnc(CNc2ccc(Cl)cc2)o1)Nc1nc2ccccc2s1	/	6.2	3.8	2.8	-0.8	26.5%	-9.4	37.3

Screening data from PubChem.
